RN4220 kill: kills Staphylococcus aureus RN4220; AID 1259311; S. aureus RN4220 growth, OD600, 16 h; inhibition, % (concentration not given with the values); 0.33% of 330,000 active;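 active = z-score of -3 or lower and OD600 up to 0.18 on both plates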;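 note: plate controls were untreated cells for no effect and reference antibiotic for full effect; stock transfer was 100 nL into about 80 µL; one replicate is shown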
PrP 5UTR inh: inhibition of PrP 5' UTR reporter expression. inhibition, % (no concentration beside the values). cell-based PrP 5' UTR mRNA reporter, plate reader. 0.35% of 340,000 active;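 active = every replicate at 50% or more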;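 note: 0 = median of the neutral control wells; tested in H4 reporter cells; numbers are from one replicate; inactives centre near -14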
BJeLR viability: kills HRASV12-expressing BJeLR cells | BJeLR (HRASV12) viability, CellTiter-Glo ATP luminescence, 48 h; reference of the scale not given here | inhibition, % (no concentration beside the values) | 0.17% of 300,000 active | AID 1554;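 active = replicate mean above 50%; inconclusive = above 50% but judged a plate artefact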;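 note: 50 nL library stock added to about 25 µL; numbers are from one replicate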
Autofluor counter: compound fluorescence in toxin protease inhibitor counterscreen; compound autofluorescence counterscreen, microsphere flow cytometry; hits give high values; fluorescence intensity (concentration not given with the values); 3.1% of 360,000 active; AID 624483;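 active = at least 3 SD above the mean of all compounds, about 16000 in these data; inconclusive = too few beads counted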;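 note: 100 nL of 1 mM stock went into each well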
ugtP null kill: growth inhibition of S. aureus ugtP deletion strain. S. aureus RN4220 ugtP deletion, OD600 growth, 16 h; some inactives read as strong as hits. growth inhibition, % (test concentration not listed). 0.54% of 330,000 active;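 active = z-score under -3 and OD600 up to 0.15 on both plates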;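 note: plate controls were untreated wells for no effect and antibiotic for full effect; wells of about 80 µL received 100 nL stock; the first replicate is given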
Mtb hypoxia inh: Mtb hypoxia fluorescent reporter inhibition. M. tuberculosis hypoxia-regulated fluorescent reporter, fluorescence. fluorescence inhibition, % (test concentration not listed). 0.1% of 300,000 active;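 active = 35 to 45% if threefold the growth effect, above 45% if 1.5-fold the growth effect; inactive = the rest, general growth blockers included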;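 note: wells of about 50 µL received 100 nL stock; 0% = vehicle wells and 100% = reference inhibitor wells; whole bacteria with a GFP reporter of the hypoxia response; strong numbers were not always called active; many hits fall short of the cut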
Mtb hypoxia inh growth: further read-out of Mtb hypoxia inh, marked with its call; growth inhibition, %; measured here: M. tuberculosis growth (absorbance);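 0% = vehicle and 100% = reference antibiotic; read after six days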
* hit, by the source's call; ? = inconclusive; · = not tested or not shown.

Below each compound: RN4220 kill, PrP 5UTR inh, BJeLR viability, Autofluor counter, ugtP null kill, Mtb hypoxia inh, Mtb hypoxia inh growth
COc1ccccc1OCCCOc1cccc(/C=C2\SC(=O)NC2=O)c1
  ·, -12, -9, 4316, ·, ·, ·
COc1ccc(N2CCN(Cc3nc4c(c(=O)n(C)c(=O)n4C)n3Cc3cccc(C)c3)CC2)cc1
  1.6, -13, 10, 4284, 77, -1, 10
CCOc1cc(NC(=S)NCc2ccco2)c(OCC)cc1NC(=O)C1CC1
  3.0, -10, -3, 2365, 8, 7, 6
Cc1nn(CCCC(=O)NCCCN2CCN(C)CC2)c(=O)c2c1sc1ccccc12
  -0.2, -28, -1, 6560, 4, 4, 4
COc1cccc(C(=O)NNC(=O)C(=O)N2CCCCC2)c1
  0.5, -35, ·, 2418, 2, 9, -5
O=C(c1ccccc1)N1CCCCC(Sc2nnnn2-c2ccccc2)C1=O (stereo not drawn)
  2.3, -11, 4, 6086, 3, 2, 8
CCC(C)n1c(=N)c(C#N)cc2c(=O)n3cccc(C)c3nc21 (stereo not drawn)
  -0.9, -20, 5, 4434, 1, -6, 12
O=c1cc(-c2ccccc2)nc2nc(-c3ccco3)[nH]n12
  1.3, -9, 3, 4864, -9, ·, ·
CCOC(=O)CNC(=O)CSc1nc(C)cc(C)c1C#N
  3.9, -7, 0, 2624, 10, ·, ·
Cc1cc(C(=O)OC(C(=O)Nc2ccc(C)c(Cl)c2)c2ccccc2)c(C)o1 (stereo not drawn)
  -10, -29, -7, 2107, 19, 2, 5
O=S(=O)(c1cccc(-c2n[nH]c(=S)n2Cc2ccccc2)c1)N1CCOCC1
  1.8, -3, -13, 2942, 5, 2, 4
CN(C)C(=O)c1ccc(COc2ccccc2Br)o1
  7.3, -65, -9, 3145, 3, 9, 6
OCCN(CCO)c1ccc2ccccc2c1
  9.6, -6, 0, 4314, -1, 14, 8
COc1cc(-c2nc3ccccn3c2N=Cc2cc(OC)c(O)cc2Cl)ccc1O
  2.2, ·, ·, ·, -6, 0, 12
CC1=C(C)CC(C(=O)N2CCN(Cc3ccc4c(c3)OCO4)CC2)C(C(=O)O)C1 (stereo not drawn)
  2.6, -5, -4, 4915, 1, 12, 15
Cc1ccccc1NS(=O)(=O)c1c(C(=O)N2CCCCCC2)c(C)n(C)c1C
  3.6, 8, -8, 3519, -1, 12, 13
Cc1cc(NC(=O)CCC(=O)N(C2CC2)C2(C(=O)NC3CCCC3)CCC(C)CC2)no1 (stereo not drawn)
  -1.1, -15, -6, 3154, 11, ·, ·
NC(=O)C1CCN(C(=O)NC2CC(=O)N(c3ccc4c(c3)OCCO4)C2)CC1 (stereo not drawn)
  -2.5, -3, 8, 6292, -3, -5, -2
CCOC(=O)N1CCN(C(=O)c2ccc3c(=O)n(CCC4=CCCCC4)c(=O)[nH]c3c2)CC1
  2.1, -20, 6, 8663, -1, 4, 3
COc1cc(C=NNC(=O)CCc2c(C)n[nH]c2C)cc(OC)c1OC
  3.8, ·, ·, ·, -1, 10, 10
CC(=NNC(=O)Cc1c(Cl)cccc1Cl)c1cccnc1
  2.4, ·, ·, ·, 5, -1, 0
CCOCc1nnc(NC(=O)CSc2ccccc2)s1
  -1.4, -16, -14, 2674, 4, ·, ·
Cc1c(C(=O)N(C)CCOc2ccccc2)oc2c(Cl)cccc12
  8.7, -23, ·, 3669, 3, 4, 3
Cc1ccc(CS(=O)(=O)CCC(=O)NCC2CCCO2)cc1 (stereo not drawn)
  6.8, -6, -3, 6070, 4, 3, -6
CC(C)(C)c1ccc(OCC(=O)N2CCN(C=O)CC2)cc1
  3.1, -11, 11, 2714, 0, ·, ·
COc1ccccc1N1CCN(S(=O)(=O)c2cccc(F)c2)CC1
  2.2, 5, -3, 22849*, 3, 5, 11
CN(C)CCNC(=O)c1onc(CSc2nc3ccccc3[nH]2)c1C(=O)NCCN(C)C
  3.6, -18, 1, 3599, -1, 2, 3
CC1CCCCN1C(=O)CSc1nnc(-c2cccs2)o1 (stereo not drawn)
  -0.4, -35, -2, 3255, 4, 16, 6
CCOC(=O)C1=C(C)NC2=C(C(=O)CCC2)C1c1ccc(N(C)C)cc1 (stereo not drawn)
  5.3, -17, 1, 9375, 7, 2, 1
Cc1cccc(NC(=O)c2ccccc2C(=O)O)c1
  6.9, -11, 8, 19743*, 3, 4, 7
O=C1CC(Sc2ccc(Cl)cc2)C(=O)N1c1ccc2c(c1)OCCO2 (stereo not drawn)
  -5.0, -13, -15, ·, 33, -12, 7
Cc1cc(/C=N\O)c(C)n1-c1ccncc1
  ·, -9, -6, 3213, ·, ·, ·
CSc1ccccc1NC(=O)CN(C)S(=O)(=O)c1ccc(F)cc1
  3.8, -3, 4, 10900, -1, 7, 17
COc1cc(/C=C/C(=O)O)cc(S(=O)(=O)N(C)CCO)c1OC
  4.2, -24, -4, 2498, 3, ·, ·
CN(C)Cc1ccc(CNC(=O)COc2ccc3ccccc3c2)cc1
  -1.1, -15, -5, 4321, 7, 0, 7
Cn1c2ccccc2c(=O)c2cc(C#Cc3cccc(N)c3)ccc21
  31, -45, ·, 3711, 0, -2, 1
CCCN(C#N)c1nc(NCC)nc(NC(C)C)n1
  3.0, 3, 2, 2070, 2, ·, ·
O=C(O)c1cccc2c1C(=O)c1ccc(N3CCCCC3)cc1S2(=O)=O
  3.2, -30, ·, 4026, 4, 9, -3
CCN(CC(=O)Nc1ccc(OC)cc1)C(=O)c1ccc(=O)n(Cc2ccccc2)n1
  3.4, -33, ·, 4232, 9, 11, 5
CC(=O)Nc1ccc(S(=O)(=O)NC(C)C(=O)NCC(c2ccco2)N(C)C)cc1 (stereo not drawn)
  3.8, 4, ·, ·, 2, -8, 4
CCOc1ccc(-n2c(O)c(N=Nc3c(C)n(C)n(-c4ccccc4)c3=O)c(=O)[nH]c2=O)cc1
  0.2, -20, 1, ·, 3, 3, 6
Fc1ccc(OCCCCCCN2CCCC2)cc1
  1.0, -24, -2, 11957, 10, 23, 8
O=C(O)c1ccccc1NS(=O)(=O)c1ccc(NN=Cc2cccc(O)c2O)c([N+](=O)[O-])c1
  21, ·, ·, ·, 2, 13, 1
CCC(C)c1ccc(NC(=O)COC(=O)C2=COCCO2)cc1 (stereo not drawn)
  3.4, -15, 1, 4723, -1, ·, ·
O=C(CN1C(=O)NC2(CCCC2)C1=O)Nc1cc(S(=O)(=O)N2CCOCC2)ccc1OCC(F)(F)F
  2.5, -5, -16, 4935, 5, 5, 0
Cc1ccc(N2CC(NC(=O)C(=O)c3c[nH]c4ccccc34)CC2=O)cc1C (stereo not drawn)
  2.2, -19, -2, ?, 2, -9, -2
ON=Cc1ccc2noc(-c3ccc(Cl)cc3)c2c1
  7.9, ·, ·, ·, 4, 12, -6
CC(C)(C)NC(=O)CSc1nnc(SCC(=O)NC(C)(C)C)s1
  7.7, -33, -6, 4266, 5, 13, 8
Cc1ccc(-c2nnc(OCc3cccnc3)c3ccccc23)cc1
  8.8, -26, 9, 4704, 4, 1, 9
COc1ccc(N2CCN(C(=O)COC(=O)c3ccccc3OCc3ccc(F)cc3)CC2)cc1
  0.4, -9, 0, ?, -3, -7, 5
COc1ccc(Cl)cc1N1C(=N)SCC1=O
  -0.2, -22, 3, 4108, 0, -3, 10
COc1ccc(CNC(=O)Nc2ccc(C)c(C)c2)cc1
  2.0, -23, 0, 2019, -5, 3, -2
O=C(CCS(=O)(=O)c1ccc(Br)s1)Nc1ccccc1Br
  3.5, -23, -1, 4383, 10, 0, -3
Oc1cccc(Nc2nc(N3CCOCC3)nc(N3CCOCC3)n2)c1
  7.1, -21, 23, 3321, -1, 10, 15
NC(=O)c1cc(Sc2ccccc2)nc2ccccc12
  -0.4, -4, ·, 2870, -3, 10, 6
Nc1nc2n(n1)C(c1cccs1)CC(c1ccc(Br)cc1)N2 (stereo not drawn)
  3.8, -29, -2, 5851, -2, -9, 5
O=C(CSc1nc2nc(-c3cccs3)cc(C(F)(F)F)c2c(=O)[nH]1)Nc1ccc(F)c(F)c1
  69, -18, 14, 2267, 80, -14, 1
CCc1nc(N2CCN(C(=O)c3ccco3)CC2)c(C#N)c2c1COC(C)(C)C2
  5.6, 9, -5, 5011, 3, 2, -3
COc1ccccc1C=NNC(=O)c1nnn(-c2nonc2N)c1-c1cccs1
  -7.2, ·, ·, ·, -5, -5, -5
O=C(CSc1ncn[nH]1)NCCc1ccccc1
  0.3, -24, 9, 4139, 7, ·, ·

Following part
Below each compound: RN4220 kill, PrP 5UTR inh, BJeLR viability, Autofluor counter, ugtP null kill, Mtb hypoxia inh, Mtb hypoxia inh growth
COc1ccc(NC(=O)C2CCN(c3ncnc4c3nc3n4CCCCC3)CC2)cc1Cl
  -0.2, -10, 5, 5420, -1, 0, 1
O=C(CNS(=O)(=O)c1ccccc1)OCC(=O)c1ccc([N+](=O)[O-])cc1
  8.4, -23, 2, 7113, 10, 0, -2
COc1ccccc1C=NN(C(C)=O)c1nc(-c2ccc(F)cc2)cs1
  14, ·, ·, ·, -9, -1, 7
CN/C(=C/[N+](=O)[O-])NCCSCc1ccc(CN(C)C)o1
  ·, -9, 3, 4375, ·, ·, ·
COc1ccc(NC(=O)[C@H](Cc2c[nH]c3ccccc23)NC(=O)[C@@H]2Cc3ccccc3CN2)cc1
  3.0, -12, 27, 4476, 2, ·, ·
COCCCN(C(=O)CSCC(=O)Nc1ccc(C)cc1)c1c(N)n(Cc2ccccc2)c(=O)[nH]c1=O
  3.9, ·, ·, 5824, 11, 12, 4
Cc1c(Cl)cccc1-n1cnc(=O)c2ccccc21
  2.8, 2, -2, 4572, 4, -3, 11
CCn1nc(C(=O)Nc2cccc3ccccc23)c(Cl)c1Cl
  -6.6, -7, -3, 4710, -15, -9, 5
O=S(=O)(NCC1CCCO1)c1ccc(S(=O)(=O)N(Cc2ccccc2F)C2CCCCC2)cc1 (stereo not drawn)
  4.9, -19, -12, 10445, 11, 0, 1
CCN(CC(=O)NCc1ccc(Cl)cc1)C(=O)CN1C(=O)NC(C)(c2ccccc2)C1=O (stereo not drawn)
  8.5, -20, 9, 6117, -2, -1, -1
CCOC(=O)c1sc(C)c2c(=O)n(CCCN3CCOCC3)cnc12
  2.4, -17, -2, 3228, -2, 14, 10
COc1ccc(S(=O)(=O)N(C)C[C@H]2Oc3ccc(NS(=O)(=O)c4cccs4)cc3CC(=O)N([C@H](C)CO)C[C@H]2C)cc1
  -12, -13, ·, 2911, -13, -1, 18
CN(CCOc1ccc(Cl)cc1)C(=O)C1CCN(C(=O)c2ccc(Cl)cc2)CC1
  0.5, -16, -3, ·, 16, -3, -29
NC(=O)CSc1nnc(SCc2ccc(F)cc2)s1
  1.7, -17, 3, 3603, 8, -2, 1
CCN(CC)S(=O)(=O)c1ccc2c(c1)nc(CCC(=O)O)n2C
  5.7, -13, 7, 5025, 1, 13, -1
Cc1cc(NC(=O)COC(=O)c2oc3c(ccc4ccccc43)c2C)no1
  5.1, 8, 1, 2462, -5, 15, 2
COc1ccccc1N1CCN(C(=O)c2sc3nc4n(c(=O)c3c2C)CCC4)CC1
  2.4, -8, -9, 4249, 2, 7, -3
CC(=O)N1CCN(CC(=O)Nc2ccc3c(c2)CCC3)CC1
  3.3, -8, -5, 2353, 9, 13, 3
CCCNC(=O)c1onc(CSc2ccc(Cl)cc2)c1C(=O)NC(C)C
  5.0, -8, 2, 2830, -14, 16, 17
Cc1ccc(C(=O)NN=Cc2cccc(OC(=O)/C=C/c3ccco3)c2)cn1
  -1.0, ·, ·, ·, -1, -7, -11
Cc1cc2ccccc2n1CCC(=O)O
  -2.1, -29, -3, 4207, -1, -8, 1
CCn1c(SCC(=O)c2ccc(OC)cc2)nnc1C1CC1
  2.9, -27, -4, 4200, 5, 3, -1
Nc1nnnn1CC(=O)N/N=C/C=C/c1ccccc1
  ·, -9, 7, 4587, ·, ·, ·
COc1ccc(S(=O)(=O)NCC(c2cccs2)N2CCc3ccccc3C2)cc1 (stereo not drawn)
  1.4, -15, 4, 4888, 46, 9, 4
CCn1c(CSc2nc(C)cc(C)n2)nnc1SCC(=O)N1CCCc2ccccc21
  3.6, -7, 1, 5875, -1, 6, 9
Cn1c(=O)c2c(nc(-c3ccccc3)n2C)n(Cc2ccccc2)c1=O
  4.5, -16, -5, 1787, 10, 3, -4

Record cards, as listed above. Screens in order: RN4220 kill, PrP 5UTR inh, BJeLR viability, Autofluor counter, ugtP null kill, Mtb hypoxia inh, Mtb hypoxia inh growth
Shown for `COc1ccccc1C=NN(C(C)=O)c1nc(-c2ccc(F)cc2)cs1` : 14, ·, ·, ·, -9, -1, 7
Shown for `CCn1c(SCC(=O)c2ccc(OC)cc2)nnc1C1CC1` : 2.9, -27, -4, 4200, 5, 3, -1

From PubChem BioAssay
